SmPrx2 inh – Schistosoma Mansoni Peroxiredoxins (Prx2) | S. mansoni Prx2 activity coupled to TGR/GSH (TGR is thioredoxin glutathione reductase), NADPH fluorescence loss, qHTS; some inactives read as strong as hits | Potency, µM | hit rate 0.07% among 65,000 | AID 448, 2006; active means full or partial inhibition curve with a strong effect at the top dose; inconclusive means weaker partial or single-point curve; inactive means no accepted curve; further: series up to 57 µM; many of its hits are not listed in these tables
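Purified S. mansoni TGR and Prx2 in pH 7.4 phosphate buffer with EDTA and Tween-20 were preincubated with compounds for 15 min. Further NADPH/GSH was added, then a 2.5 mM H2O2 aliquot initiated turnover, followed kinetically by NADPH fluorescence.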
LT uptake inh – qHTS Assay for Anthrax Lethal Toxin Internalization; Cells, anthrax lethal toxin internalization, FRET ratio (460/530); Potency, µM (top dose mostly 40 µM), for the others: at the top dose activity change, negative = inhibition, hits mostly inhibitors; hit rate 0.67% among 70,000; active = well fitted falling ratio curve with the 530 nm signal flat; inconclusive = other ratio curves, or a change in one channel alone; inactive = flat curves in the ratio and both channels; the % refers to the ratio; further: on the % scale 0 is the no-effect control and ±100 the full control effect; nearly all actives have a fitted effect of over 50% in size; tested in ME-180 cells; beta-lactamase reporter
Active calls of the source: *; ? = inconclusive; / = not tested or not shown; & = joins results of further samples; [ ] = remark or other dose. Potency means the concentration at half of the fitted maximal effect. This is a subset; the hit share may differ from the screen's.

Results follow in this order: LT uptake inh	SmPrx2 inh
> COc1ccc(C(=O)N2c3cc4c(cc3C(C)=CC2(C)C)OCO4)cc1
→ ?	>57
> CC1CN(c2nc3ccccn3c(=O)c2/C=C(\C#N)S(=O)(=O)c2ccccc2)CC(C)O1 (configuration not stated)
→ ?	>57
> Cc1csc(NC(=O)CNC(=O)OCc2ccccc2)n1
→ -4%	>57
> O=C(COc1ncnc2sccc12)Nc1ccc2c(c1)OCCO2
→ -9%	>57
> CNC(=O)O/N=C/C(C)(C)S(C)=O (configuration not stated)
→ 7%	/
> COc1ccc(CNC(=O)c2cnc3n(c2=O)CCS3)cc1
→ 2%	>57
> CCCCC(CC)C(=O)Nc1ccccc1C#N (configuration not stated)
→ -10%	>57
> CC(=O)c1cccc(NC(=O)N2CCc3ccccc3C2)c1
→ 2%	>57
> Cc1ccccc1NC(=O)c1cc(S(=O)(=O)N2CCOCC2)cs1
→ 4%	>57
> CCCN(CCC)C1Cc2cc(OC)c(OC)cc2C1
→ -17%&-9%	>57&>57
> COc1ccc(CC(NC(C)=O)C(=O)NC2CCN(C(=O)Nc3ccc(C#N)cc3)CC2)cc1OC (configuration not stated)
→ -5%	>57
> O=C(Nc1cccc(C(F)(F)F)c1)C1CCCN(c2ncccn2)C1 (configuration not stated)
→ -20%	>57
> CC(C)(C)n1ncc2c(=O)n(CC(=O)Nc3ccc4c(c3)OCCO4)cnc21
→ 8%	>57
> CCC(C)NC(=O)c1cn(C)c(=O)c2cc(OC)c(OC)cc12 (configuration not stated)
→ 0%	>57
> Cc1ccc2nsnc2c1N(S(C)(=O)=O)S(C)(=O)=O
→ -6%	>57
> Cc1cc2ccccc2c(=O)n1CC(=O)Nc1ccc2c(c1)OCCO2
→ -4%	>57
> Cc1nc2ccccc2c2oc(C(=O)NCCCN3CCCC3=O)cc12
→ 12%	>57
> COc1ccc2cc(CN(CC3COCCO3)S(=O)(=O)c3ccccc3)c(=O)[nH]c2c1 (configuration not stated)
→ 7%	?
> CN(C(=O)C12CC3CC(CC(C3)C1)C2)C1CCS(=O)(=O)C1 (configuration not stated)
→ -3%	/
> O=S(=O)(CCCc1ccccc1)c1ncn[nH]1
→ 4%	>57
> CCC1=C/C(=C\c2ccc3c(c2)OCO3)C(=O)S1
→ ?	>57
> CC1(C)Cc2ccccc2-c2nnc(SCc3ccc(C#N)cc3)n21
→ ?	>57
> CC(C)(C)NC[C@H](O)c1ccccc1Cl
→ 3%	>57
> O=C(NC1CCCCC1)n1c(=O)oc2cc(S(=O)(=O)N3CCCCC3)ccc21
→ /	>57
> O=C(CC(NS(=O)(=O)c1ccc(Cl)cc1)c1ccco1)NC1CCCC1 (configuration not stated)
→ 10%	>57
> Cc1nnc(Nc2ccccn2)c2ccccc12
→ -5%	>57
> CCOC(=O)Cc1csc(NC(=O)c2c(-c3ccccc3)noc2C)n1
→ 0%	/
> O=C(O)c1cc(NC(=O)C2CCCO2)cc(NC(=O)C2CCCO2)c1 (configuration not stated)
→ 3%	>57
> N#Cc1cc2ccccc2nc1SCc1cccnc1
→ 1%	>57
> O=C(CNS(=O)(=O)c1ccc(Br)s1)N1CCCC1
→ 12%	>57

Sorted by count of non-hydrogen atoms (rising): some entries from above
Results follow in this order: LT uptake inh	SmPrx2 inh
> CCCN(CCC)C1Cc2cc(OC)c(OC)cc2C1
→ -17%&-9%	>57&>57
> Cc1csc(NC(=O)CNC(=O)OCc2ccccc2)n1
→ -4%	>57
> O=C(CC(NS(=O)(=O)c1ccc(Cl)cc1)c1ccco1)NC1CCCC1 (configuration not stated)
→ 10%	>57

New compounds follow
Results follow in this order: LT uptake inh	SmPrx2 inh
> Cc1ccc2c(c1)sc1ncc(NC(=O)c3ccccc3)c(=O)n12
→ ?	>57
> O=S(=O)(NC1CC2CCC1C2)c1ccc2c(c1)OCCO2 (configuration not stated)
→ -6%	>57
> CS(=O)(=O)N1CCN(C(=O)Cc2ccccc2)CC1
→ -3%	>57
> CCCSc1nnc(Cn2c(=O)sc3ccccc32)n1C
→ -14%	>57
> COc1ccc(OC)c(C(=O)c2coc3ccc(OC)cc23)c1
→ ?	/
> CCCN1C2CCCC1CC(NC(=O)NC1CCCCC1)C2 (configuration not stated)
→ -10%	>57
> CCC(=O)N1CCc2cc(S(=O)(=O)NC(CC(C)C)C(=O)N3CCc4ccccc43)ccc21 (configuration not stated)
→ -4%	>57
> Cc1ccnc(N2CCCC(C(=O)Nc3nnc(C)s3)C2)n1 (configuration not stated)
→ 7%	>57
> Cc1cc(C(=O)CSc2nc3ccccc3n2CCC#N)c(C)n1Cc1cccs1
→ -26%	>57
> CN(C(=O)COc1cc(=O)n(C)c2ccccc12)c1ccc(Cl)cc1
→ 1%	>57
> Cc1ccc(-c2nnc(N(C)C(=O)c3ccncc3)s2)cn1
→ 3%	>57
> COc1ccc(S(=O)(=O)N(CC(N)=O)C2CCCCC2)cc1Cl
→ 5%	>57
> CC(=O)c1c(N2CCCCC2)nc(=S)n(Cc2ccccc2)c1C
→ -5%	/
> Cn1c(=O)[nH]c(=O)c2c1nc(CN1CCOCC1)n2Cc1ccc(F)cc1
→ 10%	>57
> C[C@@H]1NCCc2cc(O)c(O)cc21
→ -3%[3.58 µM]	>57
> CC(C)CC(=O)C[C@H](O)C(Cl)(Cl)Cl
→ -6%[8 µM]	>57
> COc1cc2c(cc1OC)CN(C(=O)c1cc(S(=O)(=O)N3CCOCC3)ccc1Cl)CC2
→ -18%	>57
> CN(CC(CC(=O)Nc1nncs1)c1ccccc1)S(=O)(=O)c1ccccc1 (configuration not stated)
→ 5%	>57
> CCOc1ccc(N=CC2=C(O)CC(C)(C)CC2=O)cc1
→ -8%	>57
> CN(C)c1ncc2nc(-c3cccs3)c(=O)n(C3CC3)c2n1
→ ?	>57
> CC(=O)/C(C(=N)N1CCN(C(c2ccccc2)c2ccccc2)CC1)=C(\C)O
→ ?	>57
> CC1CCN(C(=O)CSc2nc3ccccc3[nH]2)CC1
→ 20%	/
> COc1ccc(C(=O)Nc2ccc3c(c2)OCO3)cc1OC
→ ?	/
> CC(C)=CC(=O)OCC(=O)Nc1nc(C)c(Cl)cc1Cl
→ -6%	>57
> c1ccc(-c2nc(CSc3nnnn3-c3ccccc3)cs2)cc1
→ -20%	>57
> COc1ccccc1NC(=O)C1CCCN(S(=O)(=O)c2cccc3nsnc23)C1 (configuration not stated)
→ 3%	>57
> O=C(NCC1CCCO1)c1cccs1 (configuration not stated)
→ 0%	>57
> CC(C)NC(=O)CCNC(=O)c1ccc(F)cc1
→ -2%	>57
> COc1ccc(Nc2nc(N)nc(CN3CCN(c4ccccn4)CC3)n2)cc1
→ -9%	>57
> CC(=O)C1=C(O)C(=O)N(Cc2cccnc2)C1c1ccccc1 (configuration not stated)
→ -1%	>57
> Nc1nc2ccc(N3CCOCC3)cc2s1
→ ?	>57
> COc1ccc(OC)c(-c2cc(C(=O)NCc3ccco3)no2)c1
→ -24%	>57
> CCOC(=O)CSC(C)C(=O)Nc1nnc(C(C)C)s1 (configuration not stated)
→ 10%	>57
> O=c1c2cn[nH]c2[nH]c(=S)n1-c1ccccc1F
→ -7%	>57
> COc1ccc(NC(=O)CC2SC(=NCc3ccccc3OC)NC2=O)cc1 (configuration not stated)
→ 13%	>57
> CCC(=O)c1cc(F)c(N2CCN(S(=O)(=O)c3ccc(C)cc3)CC2)cc1C
→ -13%	/
> CCn1c(=O)cc(OCC(=O)N(C)C2CCCCC2)c2ccccc21
→ 14%	>57
> O=C(CC12CC3CC(C1)CC(CC(=O)N1CCCC1)(C3)C2)N1CCCC1
→ ?	>57
> CC(=O)c1c(N2CCCCC2)nc(=S)n(-c2ccccc2)c1C
→ -11%	/
> CNC(=O)[C@H](C)/C=C/C(NC(=O)OCc1ccccc1)c1ccc(C(=O)OC)cc1 (some centres not stated)
→ 15%	/
> CSc1nnc2n(-c3ccc(C)cc3)c(=O)c3c4c(sc3n12)COC(C(C)C)C4 (configuration not stated)
→ -9%	>57
> O=C(Nc1nc(-c2nc3ccccc3s2)cs1)C1COc2ccccc2O1 (configuration not stated)
→ ?	>57
> OC[C@H](S)CS
→ -25%[8 µM]	?
> COc1ccc(OC)c(NC(=O)Cn2c(-c3ccc(Cl)cc3)noc2=O)c1
→ -17%	>57
> Oc1ccccc1OCc1nc2ccccc2s1
→ ?	/
> CCc1ccc(NC(=O)CSc2nnc(Cc3cccn3C)n2-c2ccc(F)cc2)cc1
→ ?	>57
> CCOC(=O)N1CCN(C(=O)Cn2c(C)cc3ccccc3c2=O)CC1
→ 12%	>57
> COc1ccc(OC)c(S(=O)(=O)n2cnc3cc(C)c(C)cc32)c1
→ -24%	/
> CCCSc1nnc(CN2CCOCC2)n1C
→ -6%	>57
> Cc1cc(-c2csc(NC(=O)c3cc4ccccc4o3)n2)c(C)n1C
→ 23%	>57
> Nc1ccc(Nc2ccccc2N)cc1
→ ?	>57
> O=C(c1ccccc1-c1nc(-c2ccc(Cl)cc2)no1)N1CCCC1
→ 8%	>57
> Cc1cc(OCc2nn[nH]n2)c2c(C)c(CC(=O)O)c(=O)oc2c1
→ -6%	>57
> Cc1cc(=O)n(CCc2ccccc2)c(O)c1C#N
→ -5%&4%	>57&>57
> COc1ccc(CNC(=O)Cn2cc3c(n2)CCCCC3)cc1
→ -2%	>57
> CN1C=CC=C/C1=C1\SC(=S)N(C2CCCCC2)C1=O
→ -14%	/
> Cc1cc(C)nc(NS(=O)(=O)c2ccc(NC(=O)Cn3c(=O)oc4ccccc43)cc2)n1
→ -4%	>57
> COc1ccc(CNC(=O)CSc2nnnn2-c2ccc(O)cc2)cc1
→ /	>57
> O=C(O)CCCC(=O)Nc1ccccc1-n1ccnc1
→ 1%	>57
> CCSc1nnc(Cn2c(=O)sc3ccccc32)n1-c1ccccc1C
→ -12%	>57

Some of the entries above in a different format:
molecule	LT uptake inh	SmPrx2 inh
O=C(NCC1CCCO1)c1cccs1 (configuration not stated)	0%	>57
CCOC(=O)N1CCN(C(=O)Cn2c(C)cc3ccccc3c2=O)CC1	12%	>57
COc1ccc(CC(NC(C)=O)C(=O)NC2CCN(C(=O)Nc3ccc(C#N)cc3)CC2)cc1OC (configuration not stated)	-5%	>57
Cc1cc(=O)n(CCc2ccccc2)c(O)c1C#N	-5%&4%	>57&>57

Continued.
Results follow in this order: LT uptake inh	SmPrx2 inh
> O=c1c2cc(N3CCOCC3)ccc2[nH]c(=S)n1CCCN1CCCCCC1
→ ?	>57
> O=c1c(-c2cccs2)nc2cnc(Oc3cccc(Cl)c3)nc2n1C1CC1
→ ?	>57
> O=C(CC1OC(=O)c2ccccc21)Nc1ccccc1N1CCOCC1 (configuration not stated)
→ 2%	>57
> O[C@@H](c1cc(-c2ccc(Cl)cc2)nc2ccccc12)[C@@H]1CCCCN1
→ ?	>57
> Cc1ccccc1CN1C(=O)CSc2ccc(C(=O)N3CCOCC3)cc21
→ 8%	>57
> CCCNc1nc2c(c(=O)n(C)c(=O)n2C)n1Cc1cccc(C)c1
→ 4%	>57
> CC(CC(=O)Nc1ccncc1)c1ccccc1 (configuration not stated)
→ /	>57
> COc1ccc(CCNC(=O)CCN2C(=O)C3CC=CCC3C2=O)cc1OC (configuration not stated)
→ -1%	>57
> CC1=CC(=C2C(=O)NC(=O)NC2=O)C=C(C(F)(F)F)N1C(C)C
→ -5%	/
> COc1ccc(Cc2nnc(NC(=O)Cc3cccs3)s2)cc1
→ -11%	>57
> c1ccc(C(CCN2CC3CCC(CC3)C2)c2ccccc2)cc1
→ 0%[8 µM]	>57
> CC1=C(CC(=O)O)c2cc(F)ccc2/C1=C\c1ccc(S(C)(=O)=O)cc1
→ -14%	>57
> Cc1ccc(-c2nc3ccccc3c(=O)n2CCCN2CCOCC2)cc1
→ -3%	>57
> CCC(=O)N1CCCc2cc(S(=O)(=O)NCc3cccs3)ccc21
→ 3%	>57
> CN(C)CCNC(=O)C(C(=O)c1ccccc1)n1ccccc1=O (configuration not stated)
→ -2%	>57
> CC(Sc1ccc(Br)cc1)C(N)=O (configuration not stated)
→ -2%	>57
> NC(=O)c1ccccc1O
→ -2%	/
> Fc1cccc(CN2CCN(c3ncccn3)CC2)c1
→ -2%	/
> CC(C)N(Cc1ccccc1)S(=O)(=O)c1n[nH]c(C(C)(C)C)n1
→ -5%[8 µM]	>57
> C/C(=C1/SC(N2CCOCC2)=NC1=O)c1ccc(Br)cc1
→ -9%	/
> CC(C)N(Cc1nc(-c2ccccc2)no1)C(=O)C(C)(C)C
→ 2%	>57
> Cc1c(S(=O)(=O)N2CCN(c3cccc(C(F)(F)F)c3)CC2)c(=O)n(C)c(=O)n1C
→ 8%	>57
> Cc1noc(C)c1-c1nc(NC2CCNCC2)c2ccccc2n1
→ 6%	>57
> Cc1cc(C)nc(N2CCCC(C(=O)Nc3cc(F)ccc3C)C2)n1 (configuration not stated)
→ -7%	>57
> O=C(NCc1ccc(Cl)cc1)c1cc(-c2cccs2)on1
→ 3%	>57
> C=CCOc1c(Cl)cc(/C=N/O)cc1OC
→ -22%	/
> CCCOc1ccc2c3c(c(=O)oc2c1)CCCC3
→ ?	>57
> COC(=O)CCC(=O)COc1ccccc1C#N
→ 4%	>57
> O=C(CCc1nc2ccccc2[nH]1)N1CCc2ccccc2C1
→ 9%	>57
> COc1ccccc1OCCCCNC(C)(C)C
→ -16%	>57
> O=C1C=C(NCc2ccco2)C2(CCCCC2)O1
→ 6%	/
> Cc1[nH]c(=O)[nH]c(=O)c1CSc1nnc(CCCCCNC(=O)OC(C)(C)C)o1
→ -1%	>57
> Cc1cc(C(=O)CSc2nc3ccccc3[nH]2)c(C)n1C
→ -8%	>57
> CC(C)(C)c1ccc(OCC(O)CS(=O)(=O)c2ccccn2)cc1 (configuration not stated)
→ -1%	/
